Screening results: PubChem BioAssay, National Center for Advancing Translational Sciences (NCATS)
AmpC nodet inh – blocks E. coli AmpC beta-lactamase in absence of detergent. P00811. AmpC nitrocefin hydrolysis, absorbance 480 nm, no detergent; potencies from a single point are estimates. Potency, µM (series often up to 28.7 µM), inactives show at the highest dose activity change, negative = inhibition. 71,000 tested, 1.8% active; active = falling curve, for most hits resting on a single point; inconclusive = weak or doubtful change; inactive = flat or rising curve; note: % of control where 0% means no effect; about half of the hits show no inhibition at the top dose; a quarter of the inactives give rising signals
Target sequence (P00811 whole entry, looked up): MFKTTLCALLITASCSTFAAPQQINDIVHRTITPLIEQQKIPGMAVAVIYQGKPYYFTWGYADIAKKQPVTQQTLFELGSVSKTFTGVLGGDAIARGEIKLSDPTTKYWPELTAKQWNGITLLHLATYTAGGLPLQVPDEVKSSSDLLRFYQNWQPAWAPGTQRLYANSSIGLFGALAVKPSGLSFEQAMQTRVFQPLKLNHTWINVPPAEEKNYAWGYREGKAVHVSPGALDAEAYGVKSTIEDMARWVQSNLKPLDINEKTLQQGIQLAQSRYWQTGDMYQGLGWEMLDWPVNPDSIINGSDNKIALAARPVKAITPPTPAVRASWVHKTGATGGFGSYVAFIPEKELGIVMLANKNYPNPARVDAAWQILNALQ
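Enzyme, pH 7.0 phosphate. Compound titrations were pre-incubated with AmpC for 15 min at room temperature before nitrocefin (stock 800 uM) addition; product formation was recorded at 480 nm every 20 s for 4 min.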
The depositor's hits bear a star; ? = inconclusive; & = joins results of further samples; [ ] = another dose, or the depositor's remark. Potency is the fitted concentration of half-maximal effect. The list is partial; rates above refer to the full screens.

SMILES	AmpC nodet inh
COC(=O)[C@@]1(Cc2ccc(OC)cc2)[C@H]2c3cc(C(=O)N(C)C)n(Cc4cc(C)n(C)n4)c3C[C@H]2CN1C(=O)c1ccccc1	164.0%
O=C(Nc1ccc(Br)c(Cl)c1)c1ccco1	-13.4%
O=c1c2ccccc2n(Cc2ccc(Cl)cc2)c(=O)n1Cc1ccco1	-7.8%
Cc1ccc(C(C)C)c(OCc2ccc(-c3nnco3)cc2)c1	61.6%
c1ccc2c(c1)Cc1cc3cc4c(cc3nc1-2)OCO4	67.1%
N#CCSc1nc2ccccc2c(=O)n1CCC(=O)NCCc1ccccc1	15.8µM*[single pt active]
COc1cc(Cl)c(C)cc1NC(=O)COc1cc(C)nc(C(C)C)n1	56.4%
COc1cc(NC(=O)c2cc3nc(C)cc(C)n3n2)c(OC)cc1Cl	103.5%
Cc1ccc2c(c1)C1CN(C)CCC1N2C(=O)Cn1cnc2c1c(=O)n(C)c(=O)n2C (stereo not drawn)	-9.8%
CCOc1ccc(N(CC(=O)NC2CCCC2)S(=O)(=O)c2c(C)noc2C)cc1	27.1%
O=C(NCCc1ccccc1)c1cnn2c(C(F)F)cc(C3CC3)nc12	39.1%
C=CCc1ccccc1OCCCCN1CCCC1	11.2%
Cn1c(Cn2c(=O)sc3ccccc32)nnc1SCC(=O)NCc1ccc(F)cc1	-3.9%
O=C(Cc1c(F)cccc1Cl)N1CCN(C(=O)c2ccco2)CC1	-0.9%
O=C(COC(=O)c1c2c(nc3ccccc13)CCCC2)Nc1ccc2c(c1)OCO2	-11.3%
CN(C)c1ccc(CN2CC=C(c3ccc(F)cc3)CC2)cc1	34.9%
CC(c1cccnc1)N(C(=O)Nc1ccccc1)C1CCCCC1 (stereo not drawn)	-2.8%
COc1ccc(-c2cc(C(F)(F)F)nc(N3CCN(c4ccccc4)CC3)n2)cc1OC	0.3%
CCOC(=O)C(C)Sc1nnc2n1C(C)(C)Cc1ccccc1-2 (stereo not drawn)	24.3%
CC(=NCCN1CCNCC1)C1=C(O)CC(C)(C)CC1=O	5.5%

Of the compounds above, 4 contain sulfur:
SMILES	AmpC nodet inh
N#CCSc1nc2ccccc2c(=O)n1CCC(=O)NCCc1ccccc1	15.8µM*[single pt active]
CCOc1ccc(N(CC(=O)NC2CCCC2)S(=O)(=O)c2c(C)noc2C)cc1	27.1%
Cn1c(Cn2c(=O)sc3ccccc32)nnc1SCC(=O)NCc1ccc(F)cc1	-3.9%
CCOC(=O)C(C)Sc1nnc2n1C(C)(C)Cc1ccccc1-2 (stereo not drawn)	24.3%

(continued)
SMILES	AmpC nodet inh
CCN(CC)c1nc(Nc2ccc(Cl)cc2)nc(OCC#N)n1	7.2%
CCOC(=O)c1ccc(NC(=O)Oc2ccccc2)cc1	3.7%
COc1ccc2[nH]c(=O)c(C(c3nnnn3C3CCCC3)N(C)C3CCCCC3)cc2c1 (stereo not drawn)	-5.8%
N#Cc1cc2c(=O)n3ccccc3nc2n(Cc2cccnc2)c1=N	-11.8%
O=C(Cn1cnc2c(nnn2-c2ccc(F)cc2)c1=O)NCc1ccco1	-3.6%
O=C(O)CN(CCN(CC(=O)O)CC(=O)O)CCN(CC(=O)O)CC(=O)O	6.5%[12.8 µM]
CCC(=O)c1ccc(N2CCN(C(=O)c3ccc(Br)cc3)CC2)c(F)c1	41.4%
COc1ccc(OCC(=O)Nc2ccc(N3CCOCC3)c(Cl)c2)cc1	30.6%
Cc1ccc(NC(=O)Nc2ccc(F)cc2)nc1	-7.2%
O=C(Nc1ccc2c(c1)nc1n2CCOC1)c1ccco1	-6.9%
O=C(O)CSCCc1ccccn1	2.3%
CC(C)Oc1ccc(/C(O)=C2/C(=O)C(=O)N(CCCN3CCOCC3)C2c2ccncc2)cc1 (stereo not drawn)	-15.0%
NC(=O)CSc1nnc(CNc2cccc(Cl)c2)n1CCc1ccccc1	91.4%
COc1ccccc1S(=O)(=O)Cc1ccc(C(=O)N2CCCC2)o1	21.5%
Cc1ccccc1-n1nc(C)c2cc(C(=O)N3CCN(S(=O)(=O)c4ccccc4)CC3)sc21	28.3%
CCCCNc1nc(C)nc2c1nc(-c1ccccc1)n2CCN1CCCCC1	78.0%
CCOCCCNC(=O)C(c1ccc(Cl)cc1)N1CCN(c2ccccc2)CC1 (stereo not drawn)	31.1%
COCCCN1C(=O)c2[nH]nc(-c3ccccc3O)c2C1c1ccc(Cl)cc1 (stereo not drawn)	27.0%
O=C(C1CCN(S(=O)(=O)c2cccc3cccnc23)CC1)N1CCN(Cc2ccccc2)CC1	104.9%
COc1ccc(NC2=Nc3ccccc3CC2)cc1	-5.3%
COC(=O)C(CC(C)C)NC(=O)c1ccc(F)cc1 (stereo not drawn)	-0.9%
Cn1c(=O)c2[nH]c(CS(=O)(=O)Cc3nc4c([nH]3)c(=O)n(C)c(=O)n4C)nc2n(C)c1=O	3.7%[5.75 µM]
CN(C)S(=O)(=O)Nc1ccc2c(c1)Cc1ccccc1-2	-2.6%
CCCCNC(=O)NS(=O)(=O)c1ccc(C(=O)OC)o1	-4.9%
CC(C)CCNC(=O)NC(=O)COc1ncnc2sccc12	15.9%
CS(=O)(=O)Nc1cccc(-c2cc(NCc3cccs3)ncn2)c1	2.4%
Cc1cccc(N(Cc2ccccc2F)S(C)(=O)=O)c1	6.4%
COc1cc(CN2CCC(C(=O)N3CCN(c4ccccc4F)CC3)CC2)ccc1O	31.7%
CN(C)C(=O)C1(c2ccccc2)CCN(S(=O)(=O)c2ccccc2)CC1	36.1%
CN(C/C=C\c1ccccc1)Cc1cccc2ccccc12	8.8%[12.8 µM]
COc1ccc(OC)c(C2CC(=O)C3=C(C2)NC(=O)CC3c2ccc(O)c(OC)c2)c1 (stereo not drawn)	4.9%
O=C(c1ccco1)N1CCN=C1SCc1ccc(F)cc1	-2.7%
COc1cccc(-c2nnc(SCC(=O)Nc3ccc(S(N)(=O)=O)cc3)n2C)c1	-4.3%
COC(=O)c1ccc(N/C(C)=C/C(=O)c2ccc(C)o2)cc1	37.0%
COc1ccc(C2N(C(=O)CN3CCOCC3)CCN2S(=O)(=O)c2ccccc2)cc1 (stereo not drawn)	45.1%
Cc1nc(N=Nc2ccc(S(=O)(=O)O)cc2S(=O)(=O)O)c(COP(=O)(O)O)c(C=O)c1O	8.6%&11.3%
CC1Cc2cc(-c3csc(NC(=O)Cc4cccs4)n3)ccc2N1S(C)(=O)=O (stereo not drawn)	-23.6%
c1ccc(Nc2cc(Nc3ccccc3)[nH]n2)cc1	?
COCCCn1c(SCC(=O)n2c(C)c(C)c3ccccc32)nnc1-c1ccoc1C	75.0%
CC(CC(=O)O)CC(=O)Nc1ccccc1C(=O)O (stereo not drawn)	6.6%
N#Cc1nc(-c2cccs2)oc1N1CCN(Cc2ccccc2)CC1	41.1%
Cc1nc(C)c(C(=O)Nc2cccc(Cl)c2)o1	-8.5%
O=C1c2ccccc2-c2nc3ncnn3c(-c3ccccc3)c21	-4.8%
COC(=O)Nc1sc2c(c1C(=O)NCc1ccco1)CCC2	2.9%
O=C1CC(O)(C(F)F)Oc2ccc3ccccc3c21 (stereo not drawn)	-13.0%
Clc1ccc(COC(Cn2ccnc2)c2ccc(Cl)cc2Cl)cc1 (stereo not drawn)	17.3%
CN(CCC#N)C(=O)Cn1nc(Cc2ccncc2)c2ccccc2c1=O	3.98µM*[single pt active]
CCOc1cc(C(=S)N2CCOCC2)ccc1O	2.9%
Clc1ccc(Cl)c(Cl)c1Cl	-15.2%
Cc1cc(C(=O)NNCc2ccccc2)no1	-3.6%[12.8 µM]
CC1CCN(c2ccc(C(=O)O)cc2)CC1	-3.6%
Cc1cc(N2CCN(c3cccc(C(F)(F)F)c3)CC2)n2ncnc2n1	87.2%
CCN(C(=O)c1cn(C)c(=O)c2cc(OC)c(OC)cc12)c1cc(C)ccc1C	72.6%
OC(COc1ccc2cc(Br)ccc2c1)CN1CCN(c2ccccn2)CC1 (stereo not drawn)	74.7%
COc1ccccc1NC(=O)Cn1nnc(-c2ccccc2NC(=O)c2cccs2)n1	7.94µM*
COc1ccc2[nH]cc(CCNc3ncncc3-c3ccccc3C(F)(F)F)c2c1	5.2%
CCN(CC)CCCN1C(=O)C(O)=C(C(=O)c2cc3cccc(OC)c3o2)C1c1ccncc1 (stereo not drawn)	-0.1%
CCCCOc1ccc(C(=O)OC(C)CN(C)C)cc1 (stereo not drawn)	25.6%
O=c1oc2ccccc2n1CSc1nc2ccccc2s1	-7.1%
CSCCC1NC2(C(=O)Nc3c2ccc(Cl)c3C)[C@@H]2C(=O)N(C3CCCC3)C(=O)[C@H]12 (stereo partly drawn)	24.4%

Random excerpt: 2 records from the list
SMILES	AmpC nodet inh
Cc1cc(C(=O)NNCc2ccccc2)no1	-3.6%[12.8 µM]
CCN(C(=O)c1cn(C)c(=O)c2cc(OC)c(OC)cc12)c1cc(C)ccc1C	72.6%

Next structures:
SMILES	AmpC nodet inh
Cc1c(O)ccc(C(=O)COc2ccccc2F)c1O	-8.7%
CCCCCOC(=O)Nc1ccc(S(=O)(=O)Nn2cnnc2)cc1	0.2%
Cc1c(C)[n+](=O)c(-c2ccc(F)cc2)c(C)n1[O-]	1.3%
COc1ccc(CN(C(=O)CN2C(=O)COc3ccccc32)C2CCCC2)c(OC)c1	87.7%
COc1ccccc1N(CN1C(=O)c2ccccc2C1=O)C(=O)c1cccnc1	16.5%
COCCNC(=O)CN(C(=O)Cn1nnc2ccccc21)c1ccc(F)c(Cl)c1	26.6%
O=C1OC2(c3cc(Br)c(O)c(Br)c3Oc3c2cc(Br)c(O)c3Br)c2c(Cl)c(Cl)c(Cl)c(Cl)c21	-21.1%
Cc1ccc(C(=O)O)cc1S(=O)(=O)N1CCOCC1	-9.1%
CC(C)C[C@@H](CC(=O)N[C@@H](CCCN)CC(=O)N[C@@H]1CCCC[C@H]1C(=O)N[C@H](CC(=O)N[C@@H](CCC(=O)O)CC(=O)O)CC(C)C)NC(=O)[C@@H]1CNCC[C@H]1N	58.1%
CS(=O)(=O)Nc1ccc(-c2n[nH]c(=S)n2-c2ccccc2)cc1	-14.5%
COc1ccc(CNC(=O)CCCCCn2c(SCC#N)nc3cc4c(cc3c2=O)OCO4)cc1	-23.0%
c1ccc2sc(N3CN(CCN4CCOCC4)CN(c4nc5ccccc5s4)C3)nc2c1	159.2%
CC(C)N(CCNC(=O)C1CCN(S(=O)(=O)N2CCOCC2)CC1)Cc1ccccc1	17.2%
Oc1c(C(c2ccccc2)N2CCCCC2)sc2ncnn12 (stereo not drawn)	23.8%
O=C(Nc1sc2c(c1C(=O)O)CCC2)c1cccs1	-16.8%
CC(=O)NCCNc1nc(-c2cccnc2)nc2ccccc12	1.8%
Cc1ccc(S(=O)(=O)NC(C)C(=O)Nc2ccc(C(N)=O)cc2)cc1 (stereo not drawn)	-12.4%
CCOC(=O)CSc1nnc(CNc2cccc(Cl)c2)n1-c1ccccc1	86.7%
Cc1ccc(NC(=O)Cn2nnc(C(=O)Nc3ccc(C)c(C)c3)c2N)cc1	-6.5%
CCOC(=O)C(C)Sc1nc2c(c(=O)[nH]c(=O)n2C)n1CCc1ccccc1 (stereo not drawn)	37.6%
CCOC(=O)Cc1cc(=O)n2[nH]c(C)c(-c3ccc(OC)cc3)c2n1	-6.2%
O=c1oc2ccccc2c2c1ncn2-c1ccccc1	15.3%
Cc1c2c(n3c(nc4ccccc43)c1C#N)N(Cc1cccnc1)CC2	-1.4%
O=C(NCc1ccco1)C(c1ccccc1F)N(CC1CCCO1)C(=O)Cn1nnc2ccccc21 (stereo not drawn)	29.0%
CN(C)c1ccc(-c2nccc(NCc3cccs3)n2)cc1	10.7%
CCOc1ccc(OCCCCN(C)C)cc1	-12.1%
CS(=O)(=O)Nc1cccc(-c2ccc3ncnc(NC4CC4)c3c2)c1	?
Cc1ccc2cc(CN(CC3CCCO3)C(=O)c3ccco3)c(=O)[nH]c2c1C (stereo not drawn)	12.7%
CCn1c(SCC(=O)Nc2nc3ccccc3s2)nc2c(c1=O)SC(C)C2 (stereo not drawn)	4.6%
Cc1nn(-c2ccc(F)cc2)c2sc(C(=O)OC3CCOC3=O)cc12 (stereo not drawn)	104.1%
COC(=O)c1cc(C(=O)OC)cc(N2C(=O)CC(N3CCN(c4ccccc4)CC3)C2=O)c1 (stereo not drawn)	98.4%
COCCN1C(=O)C(O)=C(C(C)=O)C1c1ccc(OC)c(OC)c1 (stereo not drawn)	-3.2%
O=C(c1ccncc1)N1CCC2(CC1)CN(c1ncccn1)C2	24.8%
O=C(CN(Cc1ccco1)C(=O)c1cc(=O)[nH]c2ccccc12)Nc1ccccc1C(F)(F)F	35.4%
CC1Cc2ccccc2N1CC(=O)NC(=O)NCc1ccco1 (stereo not drawn)	-13.6%
C=CCn1c(C)cc(C(=O)CSc2nc3ccccc3c(=O)[nH]2)c1C	-1.2%
CCOC(=O)c1ccc(NC(=O)c2cc(S(=O)(=O)N3CCOCC3)ccc2O)cc1	-2.2%
Cc1c(NC(=O)c2ccc3c(c2)OCO3)cccc1-c1nc2ncccc2o1	10.2%
C=C1CC(C)OC(c2ccccc2OCC(O)CN2CCCCC2)C1 (stereo not drawn)	16.5%
CC(Sc1nncn1C)C(=O)Nc1ccccc1-c1ccccc1 (stereo not drawn)	3.3%
Cc1ccc(-c2ccc(CCC(=O)O)n2CC(=O)O)cc1	0.1%
CCCS(=O)(=O)N1CCCC(C(=O)NCCCN2CCN(c3ccccc3F)CC2)C1 (stereo not drawn)	45.2%
COc1ccc(CNC(=O)c2cc3c(=O)n4ccccc4nc3n(CC3CCCO3)c2=N)cc1 (stereo not drawn)	26.7%

3 consecutive records from above, for reference:
SMILES	AmpC nodet inh
COc1ccc2[nH]cc(CCNc3ncncc3-c3ccccc3C(F)(F)F)c2c1	5.2%
CCN(CC)CCCN1C(=O)C(O)=C(C(=O)c2cc3cccc(OC)c3o2)C1c1ccncc1 (stereo not drawn)	-0.1%
CCCCOc1ccc(C(=O)OC(C)CN(C)C)cc1 (stereo not drawn)	25.6%
